# High-throughput results as filed in PubChem BioAssay.
# Hsc70 ATP site = Hsc70 inhibitors, probe displacement, primary screen, biochemical, fluorescence polarization (AID 568); displacement, % at 20 µM, or IC50 in µM where a hit was titrated; 83,000 tested, under 10 active; Hsc70 fluorescence polarization, probe displacement; higher % means a stronger effect; strong numbers were not always called active;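 active = displacement above 50% without optical interference and an IC50 on retest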;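 note: ATPase domain with a fluorescein-tagged ATP probe; 0% = vehicle and 100% = excess ADP; read after one hour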
# MT1-MMP promoter = inhibitors of MT1-MMP promoter transcription, cell-based, luciferase reporter, luminescence (AID 618); MT1-MMP promoter luciferase reporter cells, luminescence; calls from a first round at 10 µM; hits with a dose series show EC50 in µM; 87,000 tested, 0.62% active;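 active = over half of the reporter light lost at 10 µM or EC50 under 50 µM; inactive = the rest and hits that failed the dose series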;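 note: actives suppress MT1-MMP promoter-driven transcription so potencies describe inhibitors; HT1080 fibrosarcoma cells; overnight exposure; toxic or luciferase-blocking compounds were not removed from the actives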
# WNV protease inh = inhibitors of WNV NS2B-NS3 protease, primary screen, biochemical, fluorogenic substrate. 65,000 tested, 0.18% active. fluorogenic substrate Ex360/Em465; active compounds read low. z-score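 (tested at a level between 10 and 100 µM)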. Genome polyprotein (West Nile virus), P06935;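 active = z-score at -3 or under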;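 note: score is relative to mean and spread of the compound wells of a plate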
# Target sequence (P06935 1371-1501 limits assumed): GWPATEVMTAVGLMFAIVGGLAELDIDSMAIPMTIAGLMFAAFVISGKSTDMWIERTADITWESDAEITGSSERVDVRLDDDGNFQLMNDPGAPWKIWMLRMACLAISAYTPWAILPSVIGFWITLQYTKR
# Target sequence (P06935 1502-1679 limits assumed): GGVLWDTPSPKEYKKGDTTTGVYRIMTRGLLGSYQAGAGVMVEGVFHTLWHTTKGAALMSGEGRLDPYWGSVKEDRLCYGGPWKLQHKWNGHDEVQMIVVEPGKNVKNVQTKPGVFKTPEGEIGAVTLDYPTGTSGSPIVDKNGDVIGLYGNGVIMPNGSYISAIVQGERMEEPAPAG
# Starred values were filed as active, the others as inactive; i = inactive; x = not tested or not shown.
# Sequence of screens: Hsc70 ATP site, MT1-MMP promoter, WNV protease inh
- C=CCn1c(Oc2cc(C)ccc2C)nc2c1c(=O)n(C)c(=O)n2C
  1.8%, i, -0.43
- CCc1ccc(N(C(C)=O)C2C=CS(=O)(=O)C2)cc1 (stereo not given)
  -4.4%, i, 0.57
- COc1ccc(-c2csc3nc(C)n(-n4cccc4)c(=O)c23)cc1OC
  -3.8%, i, 0.99
- CCOc1ccc2nc(NCCCNS(=O)(=O)c3ccc(C)cc3)c(C#N)cc2c1
  1.3%, i, x
- CC(C)CC(NC(=O)C(NC(=O)OC(C)(C)C)C(C)C)C(=O)N1CCCC1C(N)=O (stereo not given)
  1.0%, i, -1.1
- CCCCC(c1nnnn1CC1CCCO1)N1CCN(Cc2ccccc2)CC1 (stereo not given)
  3.6%, i, x
- Oc1ccccc1-c1nc(N2CCN(Cc3ccccc3)CC2)c2ccccc2n1
  0.8%, i, -0.74
- CCOCCCN1C(=O)CN(C2CCCCCC2)C(=O)C1c1ccc(OC)cc1 (stereo not given)
  -6.0%, i, -1.4
- NCCc1nnc(SCc2c(F)cccc2Cl)o1
  3.1%, i, 0.68
- Cc1onc(-c2ccccc2Cl)c1C(=O)Nc1ccc(-c2cn3cccnc3n2)cc1
  2.6%, i, 0.65
- COc1ccccc1C(O)Cc1nc2ccccc2n1C (stereo not given)
  -3.2%, i, x
- CCOC(=O)N1CCC(NC(=O)CCc2nc(-c3ccc(C)cc3)no2)CC1
  -3.1%, i, 1.6
- CC(NS(=O)(=O)c1ccccc1)C(=O)Nc1nccs1 (stereo not given)
  -3.9%, i, 0.02
- CCCCNC(=O)Nc1nnc(-c2ccccc2)o1
  1.7%, i, x
- COc1ccccc1NC(=O)CN(c1ccccc1F)S(C)(=O)=O
  -2.0%, i, 3
- COC(=O)Cn1c(=O)c2c(nc3n2CC(C)CN3c2ccc(C)c(C)c2)n(C)c1=O (stereo not given)
  2.6%, i, -0.03
- c1ccc(Oc2cccc(OCCCn3cncn3)c2)cc1
  1.0%, i, -0.99
- CCOC(=O)c1cnn(-c2ncnc3c2oc2ccccc23)c1N
  4.1%, i, 1.7
- COc1ccc2ccccc2c1C(O)c1nccn1C (stereo not given)
  -0.7%, i, -0.91
- CCCC(C(=O)N1CCOCC1)N1C(=O)C2C3C=CC(C3)C2C1=O (stereo not given)
  2.3%, i, -0.39
- CC(=O)Nc1cccc(NC(=O)c2cc3ccccc3o2)c1
  -8.7%, i, 1.3
- COc1ccc(-c2noc(CN3C(=O)c4ccccc4C3=O)n2)cc1
  0.1%, i, 0.11
- Cc1cc(NC(=O)NC2CCCN2S(=O)(=O)c2ccc(Cl)cc2)no1 (stereo not given)
  1.5%, i, -1.1
- Nc1nc(-c2ccc(Cl)cc2Cl)cn1N
  1.0%, i, 0.21
- Cc1c(C(=O)N2CCOCC2)sc2ncnc(N3CCc4ccccc4C3)c12
  3.8%, i, -0.52
- O=C(NCCCn1ccnc1)c1cc(-c2ccc3c(c2)OCO3)on1
  2.6%, i, 0.79
- CCN(CC)CCNc1ncnc2c1sc1nc(N3CCOCC3)c3c(c12)CC(C)(C)SC3
  -0.3%, i, x
- COc1ccccc1Oc1ccc(S(=O)(=O)Nc2cccnc2)cc1
  0.1%, i, 1.5
- COCCNC(=O)CCCCCN1C(=O)CCC1=O
  0.9%, i, -0.4
- Cc1cccc(C2CC(c3ccc(F)cc3)Nc3nc(N)nn32)c1 (stereo not given)
  5.9%, i, -0.55
- CCc1c(C)nc(SCC(=O)N2CCc3ccccc32)[nH]c1=O
  -1.9%, i, 0.0085
- Nc1nc(-c2nc3ccccc3[nH]2)cs1
  -1.0%, i, 1.4
- COc1ccc(C2CC(=O)c3cnc(NC(=O)c4ccccc4OC)nc3C2)c(OC)c1 (stereo not given)
  0.2%, i, 0.48
- CCOc1ccc(C(=O)OCC(=O)c2c(N)n(C)c(=O)n(C)c2=O)cc1OCC
  -3.3%, i, x
- CC(C)CN(CC(C)C)c1nnc(N)s1
  -1.6%, i, -1.1
- CCOC(=O)c1ccc2c(c1)nc(SCC(=O)NC(C)C)n2CC
  0.8%, i, x
- CCCn1c(=O)c2ccccc2n2c(SCC(=O)c3cc(C)n(CC4CCCO4)c3C)nnc12 (stereo not given)
  8.8%, i, -1.4
- CCC(C)NC(=O)N[C@@H](Cc1ccccc1)C(=O)O (stereo not given in full)
  -2.2%, i, 0.98
- CCCn1c(-c2ccc(F)cc2)cnc1SCC(=O)O
  0.9%, i, 0.71
- CCOC(=O)C(NC(C)=O)(Nc1ccc(S(=O)(=O)Nc2cc(C)on2)cc1)C(F)(F)F (stereo not given)
  9.1%, i, x
- O=C(CSc1ncn[nH]1)Nc1ccccc1C(=O)O
  1.0%, i, -1.4
- CC(C)NS(=O)(=O)c1ccc(OCC(=O)NCc2cccnc2)cc1
  0.5%, i, -0.14
- CCOC(=O)Nc1sc(C(=O)N(C)C)c(C)c1C(=O)OCC
  -0.2%, i, x
- Cc1cccc(NC(=O)CN(C)S(=O)(=O)c2cccc3nsnc23)c1C
  -3.8%, i, -1.3
- O=C(O)CC(Cc1ccc(Br)cc1)C(=O)O (stereo not given)
  -0.7%, i, -1.1

# Ordered by number of heavy atoms (falling): four of the compounds above.
# Sequence of screens: Hsc70 ATP site, MT1-MMP promoter, WNV protease inh
- CCOC(=O)N1CCC(NC(=O)CCc2nc(-c3ccc(C)cc3)no2)CC1
  -3.1%, i, 1.6
- CCOC(=O)c1ccc2c(c1)nc(SCC(=O)NC(C)C)n2CC
  0.8%, i, x
- COc1ccc2ccccc2c1C(O)c1nccn1C (stereo not given)
  -0.7%, i, -0.91
- CC(C)CN(CC(C)C)c1nnc(N)s1
  -1.6%, i, -1.1

# (cont.)
# Sequence of screens: Hsc70 ATP site, MT1-MMP promoter, WNV protease inh
- COc1ccc(C(NC(N)=O)c2ccccc2)cc1 (stereo not given)
  2.2%, i, -0.13
- O=C(O)CC(NCc1ccco1)C(=O)OCC1CCCO1 (stereo not given)
  -12%, i, -0.4
- COc1ccc(-n2cnnc2SC(C)c2nc3sc(C)c(C)c3c(=O)[nH]2)cc1 (stereo not given)
  -17%, i, -0.93
- O=C(Nc1cccnc1)c1c(F)cccc1F
  1.2%, i, -0.11
- CCOC(=O)c1c(NC(=O)CSc2nnc(-c3cccnc3)n2Cc2ccco2)sc(C)c1C
  -7.2%, i, 0.34
- COc1cccc(Oc2nnnn2-c2ccccc2)c1
  -3.9%, i, -0.97
- Cc1ccc(-c2nnc(SCc3ccccc3F)o2)cc1
  -1.5%, i, -1.7
- CC(COc1ccccc1)N(CCCl)Cc1ccccc1 (stereo not given)
  1.0%, i, 0.34
- CC(C)CNC(=O)COC(=O)c1cncc(Br)c1
  -1.2%, i, x
- CCc1nnc(NC(=O)CSc2nnc(COc3ccccc3)n2-c2ccc(C)cc2)s1
  0.7%, i, 0.61
- Cc1nc(N2CCN(C(=O)CCC(=O)O)CC2)c2c(C)c(C)sc2n1
  7.0%, i, -0.0039
- CCn1nccc1C(=O)Nc1cc(Cl)cc(Cl)c1
  5.3%, i, x
- Cc1cccn2c(=O)c3cc(C#N)c(=NC(=O)c4cccnc4)n(CC4CCCO4)c3nc12 (stereo not given)
  1.2%, i, 3.6
- COc1ccc(N(CC(=O)N2CCN(C)CC2)S(C)(=O)=O)cc1OC
  -8.0%, i, -0.63
- O=C1c2ccccc2C(O)(Cc2ccccc2)N1C1CCCCC1 (stereo not given)
  -5.1%, i, -0.37

# Among those listed so far, four contain an NH in an aromatic ring.
# Sequence of screens: Hsc70 ATP site, MT1-MMP promoter, WNV protease inh
- CCc1c(C)nc(SCC(=O)N2CCc3ccccc32)[nH]c1=O
  -1.9%, i, 0.0085
- Nc1nc(-c2nc3ccccc3[nH]2)cs1
  -1.0%, i, 1.4
- O=C(CSc1ncn[nH]1)Nc1ccccc1C(=O)O
  1.0%, i, -1.4
- COc1ccc(-n2cnnc2SC(C)c2nc3sc(C)c(C)c3c(=O)[nH]2)cc1 (stereo not given)
  -17%, i, -0.93

# Additional results:
# Sequence of screens: Hsc70 ATP site, MT1-MMP promoter, WNV protease inh
- Cc1ccc(S(=O)(=O)N2CCN(C(=O)CSc3ncc(C(F)(F)F)cc3Cl)CC2)cc1
  0.8%, i, x
- O=C(OCC(=O)N1CCN(C(=O)c2ccco2)CC1)c1cc(-c2ccc(F)cc2)nc2ccccc12
  0.1%, i, -0.19
- COc1ccccc1C1C=C(c2ccc(Cl)cc2)Nc2nc(N3C(=O)CCC3=O)nn21 (stereo not given)
  2.4%, i, 1.1
- Cc1ccc(-n2nc3c(c2NC(=O)c2ccc4c(c2)OCO4)CSC3)c(C)c1
  -6.4%, i, 0.41
- Cc1c(N/C=C/C(=O)c2cccs2)c(=O)n(-c2ccccc2)n1C
  -2.7%, i, -0.06
- COc1ccccc1OC(=O)c1ccc2nsnc2c1
  -9.2%, i, -0.08
- Cc1nnc(NCCc2ccccc2)n(N)c1=O
  5.1%, i, -1.1
- Cn1c(CN2CCCCC2)nc2cc(NC(=O)c3ccc(Cl)cc3)ccc21
  -0.3%, i, x
- CCOC(=O)c1c(C)[nH]c(C)c1C(=O)CSc1nc(N)cc(N)n1
  -4.6%, i, 1.4
- O=C(NC(=O)c1ccc(Cl)cc1)Nc1cc(N2CCCCC2)ncn1
  2.2%, i, -0.22
- O=C(Nc1nc(-c2ccccc2)ns1)c1cccs1
  1.7%, i, -0.18
- CC(=O)N(Cc1cc2c(C)cc(C)cc2[nH]c1=O)C1CCCCC1
  3.3%, i, 0.87
- CCN(CC)C(=O)Cn1cnc2ccccc2c1=O
  7.8%, i, -0.59
- CC(C)N1CCc2c(sc(NC(=O)c3ccc(S(=O)(=O)N4CCOCC4)cc3)c2C#N)C1
  -12%, i, 1.6
- O=C(C1CCN(C2CC(=O)N(Cc3ccccc3)C2=O)CC1)N1CCCCCC1 (stereo not given)
  -7.9%, i, -0.49
- COc1ccccc1CNC(=O)CN(C)CC(=O)Nc1cccc(F)c1
  1.5%, i, -0.68
- Nc1cccc(NC(=O)c2cccs2)c1
  8.0%, i, 0.07
- Cc1ccc(O)c(NC(=O)c2ccco2)c1
  0.9%, i, -0.59
- COC(=O)C(NC(=O)C(C)Oc1ccccc1)C(C)C (stereo not given)
  3.1%, i, 0.19
- COC(=O)Oc1c(Br)c(=O)oc2ccccc12
  2.9%, i, 0.94
- CCCN(CCO)Cc1ccc(Cl)c(Cl)c1
  -2.1%, i, -0.69
- N/C(=N\OS(=O)(=O)c1ccccc1)c1ccncc1
  -0.3%, i, x
- Cc1cc(C(=O)Nc2ccccc2)oc1C
  0.8%, i, x
- O=C(NCC1CCCO1)C1CCC(=O)N1CCc1ccccc1 (stereo not given)
  -3.7%, i, -1.6
- CCOc1ccccc1NC(=O)COn1nnc2ccc(Cl)cc21
  -4.4%, i, x
- N#CC1=C(N)SC2(CCCCC2)SC1c1ccccc1 (stereo not given)
  2.9%, i, 0.2
- COC(=O)c1cc(S(=O)(=O)N2CCOCC2)c(Cl)cc1N1CCOCC1
  4.6%, i, x
- Nc1nnc(SCC(=O)N2CCN(c3cccc(Cl)c3)CC2)n1-c1ccccc1
  6.5%, i, x
- COc1ccc2[nH]c3c(N4CC(C)OC(C)C4)ncnc3c2c1 (stereo not given)
  -1.4%, i, x
- Cc1nnc(C)n1/N=C/c1ccc2c(c1)OCCO2
  3.0%, i, 0.62
- O=C(NCc1ccc2c(c1)OCO2)C1CCC(CNc2c(N3CCCC3)c(=O)c2=O)CC1 (stereo not given)
  -4.8%, i, -0.6
- Cc1ccc(Nc2nc3c(s2)CCC3)c(C)c1
  2.0%, i, x
- Cc1ccc(-n2nc(C)c3c2OC(N)=C(C#N)C3c2ccncc2)cc1 (stereo not given)
  -0.1%, i, 0.17
- Oc1ccc(Br)cc1-c1cc(-c2ccccc2)n[nH]1
  -1.4%, i, x
- CCOC(=O)C1CCN(S(=O)(=O)c2ccc3c(c2)CCCN3C(C)=O)CC1
  1.2%, i, 0.62
- Cc1noc(N)c1C(=O)Nc1ccccc1F
  0.9%, i, x
- CCOC(=O)COc1nc(OC)nc(N2CCOCC2)n1
  -5.3%, i, 0.29
- Clc1ccc(/C=N/Nc2nnc(Cl)c3ccccc23)cc1
  -4.0%, i, x
- COc1ccc(C2C=C(C)Nc3nc(SC)nn32)cc1 (stereo not given)
  -14%, i, -1.1
- O=c1c2ccccc2oc2nc(-c3ccco3)n(Cc3ccccc3)c(=O)c12
  -7.2%, i, -0.4
- O=C(c1cccc(S(=O)(=O)N2CCOCC2)c1)N1CCCC1
  -7.6%, i, -0.78
- Cc1ccc(Cn2nc(C)c(NC(=O)c3cc(-c4ccco4)on3)c2C)cc1
  1.0%, i, -1.4
- O=C(NCC1COc2ccccc2O1)C1CCC(CNc2c(N3CCCCC3)c(=O)c2=O)CC1 (stereo not given)
  4.3%, i, -1.1
- O=C(CC1CCCC1)Nc1nnc(C2CC2)s1
  -5.8%, i, 0.38
- O=C(CSc1nnc(-c2ccncc2)n1CC1CCCO1)NCc1ccccc1 (stereo not given)
  -0.2%, i, 1.4
- CC(C)C(OC(=O)c1ccco1)C(=O)NCc1cccs1 (stereo not given)
  0.1%, i, 0.32
- COc1ccc2nc(NC(=O)CNS(=O)(=O)c3cccs3)sc2c1
  -1.4%, i, x
- CCOC(=O)C(CC)Sc1nnc2n1C(C)(C)Cc1ccccc1-2 (stereo not given)
  0.6%, i, -0.32

# A portion of the library; count on the stated rates, not on these rows.
